# VDR inh = vitamin D3 receptor (human) inhibition. VDR-SRC2-3 peptide fluorescence polarization, 2 h. Potency, µM, for the others: max response, negative = inhibition, usual class: inhibitors. hit rate 0.93% among 400,000. AID 504847; active = well fitted inhibition curve with a large enough effect; inconclusive = small, poorly fitted or top-dose-only effect, or another doubt; inactive = no such curve, though single readings can be large or run the other way; also: series mostly up to about 120 µM
# Target sequence (P11473 whole entry, looked up): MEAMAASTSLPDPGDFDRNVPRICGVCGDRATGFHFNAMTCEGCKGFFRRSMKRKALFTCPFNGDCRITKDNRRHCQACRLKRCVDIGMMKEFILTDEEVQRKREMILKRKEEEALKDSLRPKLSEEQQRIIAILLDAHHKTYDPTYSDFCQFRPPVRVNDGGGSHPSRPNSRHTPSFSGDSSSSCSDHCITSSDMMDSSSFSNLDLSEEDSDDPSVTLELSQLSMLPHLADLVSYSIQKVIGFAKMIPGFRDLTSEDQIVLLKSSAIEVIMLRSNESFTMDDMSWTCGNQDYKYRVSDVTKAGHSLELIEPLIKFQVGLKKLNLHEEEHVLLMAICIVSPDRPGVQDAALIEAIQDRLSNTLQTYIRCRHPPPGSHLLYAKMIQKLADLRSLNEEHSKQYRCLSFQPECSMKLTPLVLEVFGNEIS
#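 Measured by FP: displacement of SRC2-3 coactivator peptide from VDR by library compounds, following a two-hour ambient incubation.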
# * hit, by the source's call; ? = inconclusive; & = joins results of further samples. % is scaled to controls: 0 for no effect and ±100 for the full control effect; potency is read from the fitted curve at half-maximal effect.
VDR inh | SMILES
13% | COc1cccc(NC(=O)CSc2nnc(-c3cc(-c4ccccn4)nc4ccccc34)o2)c1
4% | CCNS(=O)(=O)c1cc(S(C)(=O)=O)ccc1Cl
1% | CCC(=O)Nc1nc(CC(=O)Nc2ccccc2)cs1
-3% | Cc1cc(C)cc(C(=O)NCC(=O)N2CCN(C(c3ccccc3)c3ccccc3)CC2)c1
-6% | CC1(C)CC(=O)C2=C(C1)N(Cc1ccco1)C(=O)C2(O)C(F)(F)F (configuration not stated)
3% | Cc1nc2c(oc3ccc(Cl)cc32)c(=O)[nH]1
50µM* | Cc1ccc(NC(=O)CCS(=O)(=O)c2ccc(Br)cc2)nc1
-19% | C=CCNc1nnc(SC2CC(=O)N(c3ccc(OC)cc3)C2=O)s1 (configuration not stated)
14% | Cc1noc(Cn2c(=O)c3ccccc3n(CC(=O)Nc3ccc(Cl)cc3)c2=O)n1
3% | O=c1ccn(Cc2ccccc2)cc1
-3%&-19% | CCOC(=O)C1Oc2ccccc2C(c2ccc(F)cc2)=C1C(=O)OC (configuration not stated)
-16% | CSCCC(NC(=O)COc1ccccc1)C(=O)OC(C)C(=O)Nc1ccccc1C (configuration not stated)
0% | O=c1nc2n(CCO)c3ccccc3cc-2c(=O)[nH]1
-1% | Cc1ccc(-c2nc3ncccc3o2)cc1NC(=O)Cc1ccc(Cl)cc1
2%&4% | C=CCOC(=O)NC(c1ccc(F)c(F)c1)C(C(=O)COC)C(=O)OC (configuration not stated)
2% | CCC(C)NC(=O)CC(NS(=O)(=O)c1ccc(C)cc1)c1ccc(OC)cc1 (configuration not stated)
-2% | Cc1nn(Cc2ccc(C(=O)O)o2)c(C)c1[N+](=O)[O-]
15% | COc1cccc(C(=O)N(Cc2cccnc2)c2nc3c(OC)ccc(C)c3s2)c1OC
-1% | Cc1ccc(-c2cc3cccc[n+]3cc2-c2ccc(C)cc2)cc1
? | Cc1c(Cl)cccc1NC(=S)NCc1cccn1C
-16% | O=C(c1cc(F)ccc1F)C1CCCN(C(=O)c2ccco2)C1 (configuration not stated)
-5%&6%&2% | Cc1ncc(CO)c(C=O)c1O
6% | Nc1cc(N)nc(SCC(=O)Nc2ccccc2)n1
-6% | O=C(NCC1CCCN(Cc2ccccc2F)C1)c1cccc(C(F)(F)F)c1 (configuration not stated)
6% | CCN(CC)CCCOC(=O)C1(c2ccccc2)CCCC1
-23% | COc1ccc(-c2csc(NC(=O)c3cccc(N4C(=O)CCC4=O)c3)n2)cc1OC
-13% | O=C(NC1CC2CCCC(C1)N2C(=O)NC1CCCCC1)c1ccccc1 (configuration not stated)
2% | O=C(Nc1ccc2oc(-c3ccc(Br)cc3)nc2c1)c1cc2ccccc2o1
13% | Cn1nnc(NC(=S)NC(=O)c2cccc3c(Br)cccc23)n1
6% | O=C(Cn1ncc2c(=O)oc3ccccc3c21)NCc1cccnc1
-12% | C=CCn1cc(CN2CCC(C(=O)Nc3cccc(-c4cccc(F)c4)c3)CC2)c(C)n1
-1% | COc1ccc(CCNC(=O)c2ccc(Cn3c(=O)c4ccccc4n(Cc4cccc(F)c4)c3=O)cc2)cc1OC
-5% | Cc1ccc(CCNc2ccccc2C)cn1
-25% | COC(=O)c1ccc(NC(=O)CSC2=Nc3ccccc3C3CC=NN23)cc1 (configuration not stated)
? | O=C(O)CCC(=O)Nc1sc2c(c1C(=O)Nc1ccccc1)CCCCC2
-3% | O=C(COC(=O)CC1CCCC1)Nc1ccc(Cl)cn1
1% | O=C(CCNC(=O)c1ccccc1)Nc1nc2ccccc2s1
-1% | CCOC(=O)c1[nH]c(C(=O)O)c(OC(=O)CC)c1C
-1% | Cc1ccc(NC(=O)CN(C)C(=O)COC(=O)C2=COCCO2)cc1
15% | CCOC(=O)CSc1nc(N)cc(=O)[nH]1
4% | Cc1c(NC(=O)Cc2ccccc2)cccc1-c1nc2cccnc2s1
-1% | Cc1ccc(S(=O)(=O)CC(=O)Nc2ccc(Cl)cn2)cc1
7% | O=C1CCC/C(=N/NC(=O)c2ccc(NS(=O)(=O)c3cccs3)cc2)C1
9% | CCOc1ccc(C(=O)/C=C/c2cn(CN3CCN(C)CC3)c3ccccc23)cc1
-4% | O=C(Nc1ccc(N2CCN(C(=O)c3cccs3)CC2)cc1)c1ccc(Br)o1
-14% | CC(C)(C)NC(=O)NC(=O)CN1CCN(S(=O)(=O)c2ccccc2)CC1
-29% | CCOc1cc(NC(=O)c2ccccn2)c(OCC)cc1NC(=O)CC(C)C
-3% | C[C@@H](NC(=O)c1nc[nH]c1C(=O)NCC(=O)OCc1ccccc1)c1ccccc1
-4% | CC1(C)CC2CC(C)(CN2c2ncnc3ccc(Br)cc23)C1 (configuration not stated)
-8% | O=C(c1cccc(S(=O)(=O)Nc2ccc(Br)cc2)c1)N1CCCC1
12% | O=C(COC(=O)c1cccnc1Cl)c1ccc(F)cc1
5% | CSc1ccccc1OCc1cc(C(=O)NCc2csc(C(C)C)n2)no1
7% | CCCn1c(SCC(=O)NCc2ccco2)nnc1-c1ccncc1
4% | COc1ccc(CCNC(=O)CSc2nnnn2Cc2ccc3c(c2)OCO3)cc1OC
? | C=Cc1ccc(C2=CC(=O)C[C@H](c3ccc(OC)cc3)C2)cc1
1% | Cc1ccc(C(=O)NNc2cc(=O)n(C)c(=O)n2C)cc1C
-10% | O=S1(=O)CCO[C@H]2Cc3ccccc3[C@H]2N1Cc1ccc(Cl)cc1
-2% | CC(NCc1ccncc1)C12CC3CC(CC(C3)C1)C2 (configuration not stated)
12% | COC(CNC(=O)c1ccc2c(=O)n(Cc3ccc4c(c3)OCO4)c(=S)[nH]c2c1)OC
15% | Cc1ccc(-c2noc(CNC(=O)c3ccc(C)c(Cl)c3)n2)cc1

# 2 compounds drawn at random from those above, as already listed:
VDR inh | SMILES
2% | CCC(C)NC(=O)CC(NS(=O)(=O)c1ccc(C)cc1)c1ccc(OC)cc1 (configuration not stated)
1% | CCC(=O)Nc1nc(CC(=O)Nc2ccccc2)cs1

# Remaining list, next part
VDR inh | SMILES
-12% | Cc1occc1-c1nc(-c2ccccn2)no1
9% | N#Cc1nc(Cc2ccccc2)oc1N1CCN(c2ccccc2)CC1
-15% | CCOC(=O)c1ccc(COC(=O)c2nonc2N)cc1
6% | COc1ccc(-c2nc(C(=O)Nc3ccc(C(C)=O)cc3)nn2-c2cccc(Cl)c2)cc1
0% | CC(C)NC(C(=O)Nc1cc(Cl)cc(Cl)c1)c1ccccc1 (configuration not stated)
10% | COc1ccccc1C(=O)Nc1nnc(CCc2ccccc2)s1
5% | Cc1nc2cc(NC(=O)N3CCCC3)ccc2n1C
-13% | O=c1c(-c2cc(F)cc(F)c2)nc2cnc(N3CCOCC3)nc2n1-c1ccccc1
-13% | COc1ccc(C(=O)CN2C(=O)NC3(CCCc4ccccc43)C2=O)cc1 (configuration not stated)
-2% | O=C(CSc1nnc(-c2ccccc2F)o1)NC1CC1
0% | Cc1cccc(-c2nc(CSc3nncn4c3cc3oc(C)cc34)c(C)o2)c1
? | COC(=O)C1=NNC2(c3ccc(Cl)cc3)C(=O)N(c3ccc(Cl)cc3)C(=O)C12 (configuration not stated)
23% | O=C(OCc1ccc(Cl)c(Cl)c1)c1cccnc1Cl
? | CC1(c2ccc([N+](=O)[O-])cc2)Nc2ccccc2S1 (configuration not stated)
-21% | COc1ccc(C2=NN(CN3C(=O)C(=O)c4ccccc43)C(c3ccc(C)cc3)C2)cc1 (configuration not stated)
8% | Cc1cccc(C)c1NC(=O)CNC(=O)c1ccc2c(c1)OCCO2
13% | CC(C)(C)c1ccc(C(=O)OCC(=O)NCc2ccco2)cc1
19% | Nc1nc(Nc2ccccc2)nc(C(F)(F)F)n1
13% | O=C(CCc1ccccc1)OCCN1CCOCC1
-10% | C[C@H]1CCC[C@@]2(O[C@@H](CCO)C[C@H](O)[C@H]2O)O1
2% | COc1ccc(CN(C)Cc2c(O)ccc3ccccc23)cc1
2% | CCCCNC(=O)CSc1nc2ccccc2nc1Cc1ccc(C)cc1
-9% | O=C(CNC(=O)c1ccccc1)OCc1cccc([N+](=O)[O-])c1
-4% | CN(C)C(=O)c1ccc(-c2ccc3ncnc(NC4CCNCC4)c3c2)cc1
-9% | CNCCCC1Sc2ccccc2Oc2ccccc21 (configuration not stated)
23% | O=C(Nc1ccc(Cl)cc1)N1CCN(C(=O)C2CCCO2)CC1 (configuration not stated)
-6% | CCOc1ccc(-c2nc(C)c(C(C)=O)n2O)cc1
-5% | O=C(CCC(=O)NNc1nc2ccccc2c2nc(-c3ccccc3)nn12)NCCCN1CCOCC1
0% | CCCCCCN=CC1=C(O)CC(C)(C)CC1=O
10% | CCc1nnc(NC(=O)CSc2nnc(-c3ccccc3NC(=O)c3ccccc3)o2)s1
-7% | O=C(CN1CCN(S(=O)(=O)c2ccccc2F)CC1)Nc1ccnn1C1CCCC1
-4% | CCOc1ccc(C2C(C(=O)Nc3ccccc3)=C(C)Nc3nc(-c4ccccc4Cl)nn32)cc1OC (configuration not stated)
3% | C=CCNC(=S)N1CCC(C(=O)c2ccc3c(c2)OCCO3)CC1
-20% | COc1ccc([N+](=O)[O-])cc1N(CC(=O)NCc1ccco1)S(C)(=O)=O
20% | CCn1c(SCC(=O)NC2CC2)nnc1-c1ccccc1OC
-10% | CCCn1c(=O)c2sccc2n2c(CCCC(=O)NCc3ccco3)nnc12
-12% | CCOC(=O)c1cnc2ccc(OC(F)(F)F)cc2c1Nc1ccccc1C(=O)O
-14% | O=C(COc1ccc(/C=N/NS(=O)(=O)c2ccccc2)cc1)NCc1ccccc1
8% | Cc1cc(Nc2n[nH]c(N)c2C#N)ccc1F
-2% | O=[N+]([O-])c1ccc2oc(-c3cccc(O)c3)nc2c1

# 6 compounds out of the list, arranged by molar mass, smallest number first.
VDR inh | SMILES
8% | Cc1cc(Nc2n[nH]c(N)c2C#N)ccc1F
20% | CCn1c(SCC(=O)NC2CC2)nnc1-c1ccccc1OC
-20% | COc1ccc([N+](=O)[O-])cc1N(CC(=O)NCc1ccco1)S(C)(=O)=O
-14% | O=C(COc1ccc(/C=N/NS(=O)(=O)c2ccccc2)cc1)NCc1ccccc1
-5% | O=C(CCC(=O)NNc1nc2ccccc2c2nc(-c3ccccc3)nn12)NCCCN1CCOCC1
-4% | CCOc1ccc(C2C(C(=O)Nc3ccccc3)=C(C)Nc3nc(-c4ccccc4Cl)nn32)cc1OC (configuration not stated)

# Exported with tabs: part of the list above
compound	VDR inh
O=[N+]([O-])c1ccc2oc(-c3cccc(O)c3)nc2c1	-2%
O=C(Nc1ccc(Cl)cc1)N1CCN(C(=O)C2CCCO2)CC1 (configuration not stated)	23%
CCc1nnc(NC(=O)CSc2nnc(-c3ccccc3NC(=O)c3ccccc3)o2)s1	10%
CNCCCC1Sc2ccccc2Oc2ccccc21 (configuration not stated)	-9%
CCOc1ccc(C2C(C(=O)Nc3ccccc3)=C(C)Nc3nc(-c4ccccc4Cl)nn32)cc1OC (configuration not stated)	-4%

# Next part:
VDR inh | SMILES
-16% | O=C(NCc1ccccc1)c1nc(-c2cccs2)no1
0% | O=C(CSC1=Nc2ccccc2C2=NC(CC(=O)N3CCN(c4ccccc4)CC3)C(=O)N12)NCC1CCCO1 (configuration not stated)
-3% | Cc1cc(C)cc(OCc2cc(=O)n3c4c(sc3n2)CCCC4)c1
-5% | CC1=C(C(=O)NC(C)c2ccccc2)C2(CCC(C)CC2)OC1=O (configuration not stated)
-26% | Cc1ccc(CCNC(=O)c2ccc3c(c2)N(Cc2ccc(F)cc2)CCS3)cc1
6% | COc1ccc(-n2ncc3c(NCc4cccs4)ncnc32)cc1
-1% | CN(CCc1ccccn1)C1CCCN(S(=O)(=O)c2ccccc2Cl)C1 (configuration not stated)
-19% | O=C(CCc1nnc(CCCc2ccccc2)o1)N1CCCCCC1
1% | O=C(COC(=O)c1ncc(Cl)c(Cl)c1Cl)Nc1cccnc1Cl
1% | Cc1ccc(CNc2ncnc3[nH]ncc23)o1
-1% | O=P(O)(O)C(O)(Cc1cccnc1)P(=O)(O)O
3% | Clc1ccccc1Sc1cnc2ccccc2n1
15% | N#CCC(CNc1ncc(C(F)(F)F)cc1Cl)OC(=O)c1c(F)cccc1F (configuration not stated)
-4% | O=C(CSc1cccc2cccnc12)N/N=C/c1ccc(F)cc1
0% | Cc1nnc(N(CCC#N)CCC#N)s1
0% | CN/S(=N/S(=O)(=O)c1ccccc1)c1ccc(C)cc1 (configuration not stated)
1% | COc1ccc2nc(-c3ccccc3)[nH]c2c1
11% | CCOC(=O)Cc1nnc(Nc2cc(C)ccc2C)c2ccccc12
-20% | CC(C)(C)N(Cc1ccccc1)C(=O)c1ccc(Cl)cc1[N+](=O)[O-]
-10% | CCC(C)C(N)C1=NC(C(=O)N[C@@H](CC(C)C)C(=O)N[C@H](CCC(=O)O)C(=O)N[C@H](C(=O)N[C@H]2CCCCNC(=O)[C@H](CC(N)=O)NC(=O)[C@@H](CC(=O)O)NC(=O)[C@H](Cc3cnc[nH]3)NC(=O)[C@@H](Cc3ccccc3)NC(=O)[C@H]([C@@H](C)CC)NC(=O)[C@@H](CCCN)NC2=O)[C@@H](C)CC)CS1 (some centres not stated)
-3% | Cc1cccc(-n2c(=O)c3c(c4cc(C)ccc4n3C)n(CC(=O)Nc3ccccc3Cl)c2=O)c1
-4% | COc1cc2c(cc1NC(=O)c1cccc([N+](=O)[O-])c1)oc1ccccc12
0% | CC(=O)NC(C(=O)c1ccccc1)C(=O)c1ccccc1
3% | Cc1ccc(Cl)cc1Nc1nc(-c2cccnc2)cs1
5% | O=C(COC(=O)c1ccc(S(=O)(=O)Nc2ccccc2)cc1)NCCN1C(=O)CSC1=O
-13% | Cc1ccc(N(C)S(=O)(=O)c2cccc(C(=O)NCC(c3cccs3)N3CCOCC3)c2)cc1 (configuration not stated)
-9% | O=C(c1ccc2nc(N3CCOCC3)sc2c1)N1CCN(c2ccc(Cl)cc2)CC1
16% | O=C(CSc1n[nH]c(-c2ccccc2)n1)NCCCc1ccccc1
-4% | Cc1cccc(-c2noc(CCC(=O)NC3CCCCC3)n2)c1
-2% | COc1cc([N+](=O)[O-])ccc1NC(=O)N1CCCCCC1
-3% | CCN(CC(=O)NCc1cccs1)C(=O)C(c1ccccc1)c1ccccc1

# Only part of the results is shown, so the mix of outcomes need not match the whole.
